# miR-21 FLuc – raises the signal of a miR-21 reporter; HeLa miR-21 FLuc reporter, luciferase, 48 h; Potency, µM (highest dose often 38.3 µM), for the others: top-dose reporter change, positive = more light; 340,000 tested, under 10 active; AID 2288; active = well fitted rising curve with a large enough effect; inconclusive = small, poorly fitted or top-dose-only effect; inactive = no such curve, though single readings can be large or run the other way;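 note: % of control where 0% means no effect; miR-21 action dims this reporter so a rising signal means less miR-21 action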
#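 HeLa miR-21-FLuc reporter line, endogenous miR-21; 2000 cells/well in DMEM/10% FBS; compound titration up to ~40uM final, 48 h, 37 degree Celsius; luciferase detection reagent, 15 min lysis, CCD luminescence.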
# Rango-impB inh – Rango-importin beta binding inhibition. Q14974. Rango CFP/YFP FRET sensor + importin beta, 45 min. Potency, µM (highest dose often 92.2 µM), inactives show at the top dose inhibition of complex formation. hit rate 0.031% among 340,000; active = rising FRET ratio curve, often small or poorly fitted; inconclusive = mostly compound fluorescence or quenching in the first reads; inactive = flat curves in all reads;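 note: potency is the fitted concentration of half-maximal effect; 0% = DMSO wells and 100% = buffer wells lacking importin beta; nearly all actives have a fitted effect of over 15% in size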
#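 FRET biosensor Rango (snurportin 1 IBB between N-terminal EYFP and C-terminal Cerulean), 50 nM in PBS/1 mM DTT/0.02% Tween-20/0.1% BSA, preincubated 5 min RT with compound; 0.125 microM importin beta added, 45 min RT, CFP/YFP FRET ratio read.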
# GLA inh pH 4.5 – blocks human alpha-galactosidase A at pH 4.5; 230,000 tested, under 10 active; P06280; activity change, negative = inhibition, % at 105 µM; purified enzyme, 4-MU-alpha-Gal fluorescence, pH 4.5; inconclusive = small, poorly fitted or top-dose-only inhibition, or a rising curve; inactive = flat fitted curve, though single readings scatter; no compound was filed as active;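 note: 0% = full activity with enzyme and -100% = basal without enzyme; dose as in the result columns while the protocol names 77 µM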
# Target sequence (P06280 whole entry, looked up): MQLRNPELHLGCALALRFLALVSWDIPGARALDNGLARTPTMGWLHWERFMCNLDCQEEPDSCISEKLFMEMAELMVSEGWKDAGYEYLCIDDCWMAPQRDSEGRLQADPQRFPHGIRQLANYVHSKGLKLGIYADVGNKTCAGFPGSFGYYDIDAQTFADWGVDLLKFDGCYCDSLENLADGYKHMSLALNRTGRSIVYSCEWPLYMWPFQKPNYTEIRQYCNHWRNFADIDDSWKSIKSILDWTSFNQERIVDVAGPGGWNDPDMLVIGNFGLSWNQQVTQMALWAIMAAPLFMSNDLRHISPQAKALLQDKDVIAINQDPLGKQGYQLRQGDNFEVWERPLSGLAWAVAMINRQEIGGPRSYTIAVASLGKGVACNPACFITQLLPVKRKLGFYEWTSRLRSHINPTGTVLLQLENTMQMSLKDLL
# Rango release inh – inhibition of RanGTP-driven Rango-importin beta dissociation; O95149+P62826; Biochemical FRET Rango-importin beta, RanGTP-induced dissociation; Potency, µM (series often up to 46.1 µM), without a hit: at the highest dose activity change, negative = inhibition; hit rate 0.071% among 340,000; active means falling FRET ratio curve, often poorly fitted, with flat reads before Ran was added; inconclusive means other falling curves, or compound fluorescence or quenching; inactive means flat or rising ratio curve;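 note: potency is the fitted concentration of half-maximal effect; % of control where 0% means no effect; nearly all actives have a fitted effect of over 45% in size; -100% = wells without RanGTP and RCC1; the record marks most hits as doubtful in a second field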
#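 FRET read at 45 min, room temperature: inhibitors block the CFP/YFP signal rise when RanGTP (0.6 uM Ran, 2 mM GTP, 0.2 uM RCC1) frees Rango (0.1 uM) from importin beta (0.25 uM). Pre-read after 5 min compound exposure flags interference.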
# Numbers without * were called inactive; ? = inconclusive; / = no result given. An excerpt, so the mix of outcomes need not match the whole.
# The first 3 entries, to show the layout:
SMILES,miR-21 FLuc,Rango-impB inh,GLA inh pH 4.5,Rango release inh
Cc1noc(C)c1COC(=O)c1cc(C)n(-c2ccccc2)c1C,-26%,5.0%,-4,?
CN(C(=O)c1cccc(NC(=O)Cc2ccc(NC(=O)C3CCCN(C(=O)C4CC4)C3)cc2)c1)C1CC1 (stereo unspecified),/,5.3%,/,-10%
O=C1c2ccccc2C(=O)N1CN(C(=O)COc1ccccc1)c1ccc(F)cc1,-12%,-0.7%,-3,-10%

# Main list, from the first entry:
SMILES,miR-21 FLuc,Rango-impB inh,GLA inh pH 4.5,Rango release inh
Cc1noc(C)c1COC(=O)c1cc(C)n(-c2ccccc2)c1C,-26%,5.0%,-4,?
CN(C(=O)c1cccc(NC(=O)Cc2ccc(NC(=O)C3CCCN(C(=O)C4CC4)C3)cc2)c1)C1CC1 (stereo unspecified),/,5.3%,/,-10%
O=C1c2ccccc2C(=O)N1CN(C(=O)COc1ccccc1)c1ccc(F)cc1,-12%,-0.7%,-3,-10%
COc1cc2ccccc2cc1C(=O)Nc1ccc(N2CCOCC2)cc1,-9%,-1.3%,/,-10%
CC(C)CCSc1ncnc2c1oc1nc3c(cc12)COC(C)(C)C3,-3%,0.3%,1,-8%
CCCCOC1CC(c2ccc(OCc3ccc(OC)cc3)c(OC)c2)N(C)O1 (stereo unspecified),4%,-0.4%,-11,-6%
O=C(C1CCCN(Cc2ccccc2)C1)N1CCc2ccccc2C1 (stereo unspecified),2%,-2.1%,0,9%
Cc1cccc(NS(=O)(=O)c2ccc(NS(=O)(=O)c3cccs3)cc2)c1,1%,-0.4%,/,-13%
CCCCc1ccc(NC(=O)Cn2c(=O)c(N3CCCCC3)c(N)n(C)c2=O)cc1,/,?,/,1%
COc1ccc(/C=N/NC(=O)CC(=O)NCc2cccnc2)cc1,0%,0.4%,3,9%
Cc1ccc(OC(C)C)c(CN(CCO)CCO)c1,0%,0.3%,6,-9%
O=C(CCc1ccccc1)NNC(=O)c1ccccc1Cl,-7%,9.2%,/,5%
CCc1ccc(OCC(=O)NC(NC(=S)Nc2ccccc2)C(Cl)(Cl)Cl)cc1 (stereo unspecified),25%,-0.1%,-22,8%
CCCCC(CCc1ccccn1)C(=O)c1ccccc1 (stereo unspecified),/,-5.0%,/,-2%
CC(=O)O[C@]1(C(C)=O)CC[C@H]2[C@@H]3C=CC4=CC(=O)C=C[C@]4(C)[C@H]3CC[C@@]21C,-13%,3.0%,/,-4%
O=C(Cc1ccsc1)NNC(=O)c1ccccc1Cl,/,?,/,17%
COc1cc(CC(=O)Nc2cc(S(C)(=O)=O)ccc2Cl)cc(OC)c1OC,1%,-0.3%,5,1%
Cc1cc(-c2ccccc2)n(-c2ccc(C(=O)N3CCN(c4ncccn4)CC3)cc2)n1,9%,-1.3%,-4,-3%
CN(Cc1ccccc1)CC(O)COc1ccc(CNCCCOc2cccnc2)cc1 (stereo unspecified),-11%,-3.5%,8,8%
COC(=O)c1c(NC(=O)CN2C(=O)C(=O)N(CC(C)C)C2=O)sc2c1CCCCC2,0%,-0.7%,6,7%
COc1ccc(CCN(C)C(=O)CSc2nc3ncc(Cl)cc3[nH]2)cc1OC,-6%,4.4%,-4,-10%
Cc1cccc(OCC(=O)NCCNC(=O)c2cccnc2)c1,0%,-2.3%,/,16%
CC[C@]12c3[nH]c4ccc(OC)cc4c3CCN1C(=O)C(CC(=O)NCc1ccco1)C[C@@H]2C(=O)N1CCN(C(=O)C2CC2)CC1 (stereo partly specified),/,-2.7%,/,-9%
COCc1[nH]nc2c1C(c1cc(OC)c(O)c(OC)c1)C(C#N)=C(N)O2 (stereo unspecified),3%,?,-4,-3%

# Entries of single compounds as entered above. Order of values: miR-21 FLuc | Rango-impB inh | GLA inh pH 4.5 | Rango release inh
# CCCCC(CCc1ccccn1)C(=O)c1ccccc1 (stereo unspecified) is listed with / | -5.0% | / | -2%
# COc1ccc(CCN(C)C(=O)CSc2nc3ncc(Cl)cc3[nH]2)cc1OC is listed with -6% | 4.4% | -4 | -10%

# Going on with the list.
SMILES,miR-21 FLuc,Rango-impB inh,GLA inh pH 4.5,Rango release inh
CC1CCCC(NS(=O)(=O)c2ccc3c(c2)OCCO3)C1C (stereo unspecified),-6%,6.3%,-11,10%
C=CCC(=O)N1CCC(n2nccc2NC(=O)CCOc2ccccc2)CC1,-8%,0.5%,/,-9%
COc1ccc(NC(=O)CCNC(=O)Cn2ccc3ccccc3c2=O)cc1Cl,-2%,1.7%,/,-5%
Cc1ccc2c(n1)sc1c(-c3ccccc3)c(C#N)c(N)nc12,-4%,?,-4,?
c1ccc(Cn2nnnc2CN2CCN(c3ncccn3)CC2)cc1,-7%,1.4%,11,3%
COc1ccc(NC(=O)C2C3CCC(C3)C2C(=O)O)cc1OC (stereo unspecified),-2%,-0.3%,-4,-7%
OCC(O)CN1CCCC1 (stereo unspecified),0%,4.5%,0,-5%
Fc1ccc(F)c(NC2=NCCCCC2)c1,7%,-1.9%,/,0%
CN(C)C(CNC(=O)c1cccc(C#N)c1)c1ccco1 (stereo unspecified),-2%,0.4%,-1,-7%
O=C(COC(=O)c1ccc(O)cc1O)NC1CCCCCC1,/,5.8%,/,-8%
COc1ccc(NC(=O)c2ccccc2NC(=O)C2CCCO2)cc1 (stereo unspecified),-26%,2.3%,-6,-6%
Cc1ccc(-c2cc(C(=O)N/N=C/c3ccc(F)cc3)n[nH]2)o1,-3%,-2.9%,/,-10%
COc1ccc(Br)cc1/C=N/Nc1cccc(C(=O)O)c1,-48%,-0.5%,-11,3%
O=[N+]([O-])C(/C=C(/Cl)[N+](=O)[O-])=C(N1CCCCC1)N1CCCCC1,3%,0.9%,-1,11%
O=C(Cc1cccs1)N1CCN(S(=O)(=O)c2ccccc2)CC1,0%,-4.6%,-7,-7%
NS(=O)(=O)c1ccc(CNC(=O)CCCSc2ccccc2)cc1,-2%,-3.2%,/,-3%
COc1ccc(CC(=O)OCCN(C)C)cc1,0%,?,5,-5%
C=CCN(CC=C)C(=S)NC(=O)c1ccc(C)c(Br)c1,29%,0.0%,5,33%
COc1ccc(OC)c(-n2c(SCC(=O)Nc3cc(C)on3)nnc2-c2c[nH]c3ccccc23)c1,-7%,0.7%,1,1%
Cc1cccc(N2CCN(CC(O)COc3ccc(Cl)cc3)CC2)c1 (stereo unspecified),2%,3.0%,-6,1%
O=C(Nc1ccc(Cl)cc1)C1CCCN(c2cnccn2)C1 (stereo unspecified),-12%,11%,/,6%
Cc1nnsc1SC(C)C(=O)O (stereo unspecified),-2%,1.7%,-14,4%
N#C/C(=C/C1=C(N2CCOCC2)C(=C/c2ccc(Cl)cc2Cl)/CC1)C(=O)Nc1ccccc1F,/,5.5%,/,-11%
CCOc1ccc(N)c(SSc2cc(OCC)ccc2N)c1,-8%,6.6%,/,6%
CCCCOC(=O)Nc1cccc(C(C)=O)c1,-37%,2.9%,-5,7%
COc1nc(N)nc2c1ncn2C1OC(CO)CC1O (stereo unspecified),/,0.4%,/,28%
O=C(Cc1ccccc1)NNC(=S)Nc1ccc(Cl)cc1,-25%,2.5%,-3,11%
Oc1c(Cl)cc(Cl)cc1C=Nc1cc(C(F)(F)F)ccc1N1CCc2ccccc2C1,-42%,?,-8,?
Nc1c(C(=O)Nc2ccc(F)cc2)sc2nc(-c3ccco3)ccc12,-18%,?,-13,?
COCCCNC(=S)NNC(=O)c1ccc2c(c1)OCO2,-17%,-0.5%,-8,-6%
COc1cc2c(C#CCCCO)c(-c3ccsc3)oc(=O)c2cc1OC,/,?,/,-18%
CSCC[C@H](NC(=O)[C@@H]1Cc2ccccc2CN1)C(=O)Nc1ccc2c(c1)OCCO2,-44%,3.5%,/,-13%
Cc1ccc(C(=O)Nc2ccccc2Oc2ccccc2)cc1[N+](=O)[O-],0%,2.3%,-6,7%
COc1ccc(C2C(C#N)=C(N)Oc3cc(C)n(CCN4CCOCC4)c(=O)c32)cc1OC (stereo unspecified),-4%,0.7%,3,17%
COc1ccc(C(=O)N2CCC(C(=O)Nc3ccc4c(c3)OCO4)CC2)cc1,-5%,7.4%,-2,-10%
Cc1cc(/C=C2\SC(=S)NC2=O)c(C)n1C,-18%,?,-1,?
Cc1ccc2c(cnn2C(=O)CCC(=O)NC2CCCC2)c1,-1%,8.3%,/,0%
NC(=O)C1(N2CCCCC2)CCN(C(=O)CSc2nc(C(F)(F)F)cc(=O)[nH]2)CC1,-4%,0.5%,-3,4%
NC(=O)C1CCN(C(=O)c2cccc(S(=O)(=O)N3CCc4ccccc4C3)c2)CC1,-3%,1.3%,-4,8%
CN1C(=O)Cn2c1nc1ccccc12,-1%,-0.6%,9,28%
OCCC1CN(Cc2c(F)cccc2Cl)CCN1C1CCCCC1 (stereo unspecified),-1%,0.5%,-12,19%
COc1ccc(N2CCN(C(=O)COC(=O)Cc3cccc(OC)c3)CC2)cc1,/,-1.7%,/,-3%
O=C(Nc1cccc(Cn2cccn2)c1)c1cc2c(s1)CCCC2,-14%,2.7%,-10,0%
Cc1ccc(/C=N\NC(=O)Cc2noc3ccccc23)cc1,-1%,-0.6%,/,9%
COc1ccc(C(=O)c2ccc(Cl)cc2)cc1,-14%,?,1,-13%
COCOc1ccc(/C=C2/Oc3cc(OCOC)cc(OCOC)c3C2=O)c(OCOC)c1,/,?,/,?
CCc1ccc(NC(=O)c2ccc3nc(N)sc3c2)cc1,-42%,1.1%,-8,14%
COc1cc(CC(=O)Nc2cc(S(=O)(=O)N3CCOCC3)ccc2N2CCCC2)cc(OC)c1OC,/,-0.9%,/,0%
Cc1nc(SCC(=O)N(C)C2(C#N)CCCCC2)c2ccccc2n1,/,?,/,-8%
CN(Cc1ccccc1)C(=O)c1ccc(S(=O)(=O)N(C)c2ccccc2)cc1,/,1.6%,/,-16%
Cc1ccccc1-c1cc(C(=O)NCc2ccco2)nn1CC1CC(c2cccc([N+](=O)[O-])c2)=NO1 (stereo unspecified),/,6.9%,/,2%
CNS(=O)(=O)c1cccc(C(=O)OCC(=O)c2ccc(S(=O)(=O)N3CCCCC3)cc2)c1,/,-0.9%,/,5%
CCOC(=O)N1CCN(Cc2nnc(-c3ccccc3C)o2)CC1,-18%,0.0%,/,-9%
C/C(=N\Nc1nc(-c2ccccc2O)nc2ccccc12)c1ccccc1,-11%,1.5%,1,6%
Nc1nc2ccc(NC(=O)c3ccco3)cc2s1,-75%,-3.9%,/,12%
COc1ccc(C(=O)c2c(NC(C)=O)sc3c2CCN(C(=O)OC(C)(C)C)C3)cc1,-12%,0.0%,2,-1%
O=C(NC1CCCCC1)[C@H](O)[C@@H](O)C(=O)NC1CCCCC1,0%,0.0%,-6,-1%
Cc1ccc(S(=O)(=O)Nc2ccccc2C(=O)N2CCCC2)cc1,-5%,-0.1%,/,16%
COc1cc2cc(Oc3ccc4ccc(=O)oc4c3)c(=O)oc2cc1O[C@@H]1O[C@H](CO)[C@@H](O)[C@H](O)[C@H]1O,/,-3.9%,/,-20%
Cc1ccc(Cn2ccsc2=NC(=O)COC(=O)C(C)C)cc1,-18%,-2.2%,/,-2%

# The results go on:
SMILES,miR-21 FLuc,Rango-impB inh,GLA inh pH 4.5,Rango release inh
O=C(CCOc1ccccc1)Nc1ccnn1C1CCN(Cc2ccc(O)cc2)CC1,-3%,2.2%,/,-2%
COc1ccc2c(c1)cc(C)c1nnc(SCC(=O)N3CCN(C(=O)c4ccco4)CC3)n12,-4%,-2.8%,-4,-6%
c1cnc(-c2noc(CN3CCN(C4C5CC6CC(C5)CC4C6)CC3)n2)cn1 (stereo unspecified),0%,-6.1%,1,7%
Cc1c2cnn(CC(=O)NCCN3CCOCC3)c(=O)c2c(C)n1Cc1ccc(F)cc1,-1%,3.1%,/,2%
CS(=O)(=O)N(CC(=O)Nc1cccc(F)c1)Cc1ccccc1,-2%,5.3%,0,11%
Cc1cc(-c2ccccc2)c2c3c(c(-c4ccccc4)n2n1)c(=O)n(C)c(=O)n3C,-4%,?,-5,?
O=C(CC12CC3CC(CC(C3)C1)C2)Nc1ccccc1N1CCOCC1,-9%,1.1%,-8,2%
CC1C(=O)N2CCCc3cc(NC(=O)C(=O)NCc4cccnc4)cc1c32 (stereo unspecified),/,4.3%,/,41%
CN(C)S(=O)(=O)c1ccc(NC(=O)COC(=O)c2n[nH]c3ccccc23)cc1,0%,-0.7%,-2,?
